Source: PubChem BioAssay (several laboratories)
Rce1 inhib: yeast Rce1p protease inhibitors, primary screen, biochemical, fluorescence, cell-free homogeneous. yeast membranes, quenched prenylated peptide cleavage fluorescence. CAAX prenyl protease 2 (Saccharomyces cerevisiae (strain ATCC 204508 / S288c)), Q03530. calls only. AID 2563, 2010. 290,000 compounds, 0.27% hits;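 active means fall in fluorescence gain of 50% or more versus controls, with final raw signal at or below 3038400; inconclusive means same 50% fall but final raw signal above 3038400; inactive means fall in fluorescence gain under 50%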;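 further: plate controls were neutral control wells for no effect and wells lacking membranes for full effect; tested at 10 µM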
CSC inhib: cancer stem cell viability inhibitors, primary screen, luminescence | cancer stem cell-like cells viability | inhibition, % at 7.5 µM | 300,000 compounds, 1.1% hits | AID 2717, 2010;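 active means mean at 75% or more and at least half the replicates too; inconclusive means mean and replicates disagree; tested in HMLE shEcad cells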;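 further: 0% = median of negative and 100% = median of positive control wells; the first replicate is given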
MT1-MMP act inh: blockers of MT1-MMP proenzyme processing, primary screen, HT1080 RFP-PRO-GFP cells, GFP/RFP fluorescence | 360,000 compounds, 0.061% hits | GFP/RFP ratio fluorescence, overnight; percent of plate control window, DMSO zero | Matrix metalloproteinase-14 (Homo sapiens), P50281 | AID 651647, 2012 | GFP/RFP ratio change, % at 20 µM;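 active means GFP/RFP ratio change of at least 30% with cell ATP level not reduced by more than half and red fluorescence within 50% of control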; further: strong numbers were not always called active
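Assay system: HT1080 cells carrying an RFP-PRO-GFP reporter | Dosing: Single dose of 20 µM compound, 1% DMSO final | Incubation: Cells overnight before dosing, compound overnight, 37 °C, 5% CO2 | Evaluation: GFP/RFP fluorescence ratio | Control set: DMSO and RFP-L50D-GFP cell wells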
PABP FP inh: PABP poly(A) RNA binding inhibitors, primary screen, biochemical, fluorescence polarization, uHTS; 290,000 compounds, 1% hits; inhibition, % at 35 µM; Polyadenylate-binding protein 1 (Homo sapiens), P11940;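 active means 50% or more with normal probe brightness, or confirmed in later tests; inconclusive means above 50% with abnormal brightness, or retests that disagree; inactive means below 50% or failed in later tests; about a fifth of its hits are not listed in these tables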;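 further: calls also rest on retests at 20 µM and on dose response follow-up; controls were probe without protein and protein plus probe with vehicle; some compounds called inactive have numbers as strong as hits; many hits fall short of the cut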
Target sequence (P11940 whole entry, looked up): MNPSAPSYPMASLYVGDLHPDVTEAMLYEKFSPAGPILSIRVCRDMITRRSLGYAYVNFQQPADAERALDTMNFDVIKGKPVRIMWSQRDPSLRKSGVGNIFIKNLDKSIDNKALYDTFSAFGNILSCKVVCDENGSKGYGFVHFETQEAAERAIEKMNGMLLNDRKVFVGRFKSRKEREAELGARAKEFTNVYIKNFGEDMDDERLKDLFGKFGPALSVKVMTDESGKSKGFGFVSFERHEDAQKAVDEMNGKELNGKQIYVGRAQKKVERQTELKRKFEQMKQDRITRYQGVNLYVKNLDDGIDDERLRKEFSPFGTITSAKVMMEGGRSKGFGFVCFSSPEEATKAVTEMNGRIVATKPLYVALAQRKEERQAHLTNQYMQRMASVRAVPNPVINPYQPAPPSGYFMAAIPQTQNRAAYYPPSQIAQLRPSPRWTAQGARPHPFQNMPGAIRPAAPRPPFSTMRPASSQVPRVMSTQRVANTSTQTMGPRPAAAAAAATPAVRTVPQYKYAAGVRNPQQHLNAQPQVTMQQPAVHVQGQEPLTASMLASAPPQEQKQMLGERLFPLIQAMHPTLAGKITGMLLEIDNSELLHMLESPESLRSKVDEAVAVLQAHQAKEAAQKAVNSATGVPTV
eIF4H inh: human eIF4H binding inhibitors, primary screen, translation initiation inhibitor project, biochemical, uHTS, fluorescence polarization | Eukaryotic translation initiation factor 4H (Homo sapiens), Q15056 | 290,000 compounds, 0.94% hits | eIF4H fluorescence polarization binding assay | inhibition, % at 35 µM;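 active means 50% or more with normal probe brightness, or confirmed in later tests; inconclusive means above 50% with abnormal brightness, or retests that disagree; inactive means below 50% or failed in later tests; about a fifth of its hits are not listed in these tables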;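 further: calls also rest on retests at 20 µM and on dose response follow-up; 0% = protein and probe with vehicle and 100% = probe without protein; strong numbers were not always called active; many hits fall short of the cut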
Env fusion inh: inhibitors of HIV-1 Env-driven cell-cell fusion, primary screen, HeLa-JRFL effector, CEM21 target cells, luciferase; inhibition, % at 12.3 µM; 360,000 compounds, 1.1% hits;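 active means mean replicate inhibition score of at least 50 and every replicate individually at or above 50; inconclusive means only one of the two criteria met; inactive means mean below 50 and not all replicates reaching 50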;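 further: 0% = plate neutral controls and 100% = maraviroc near 300 nM; one replicate is shown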
Yeast UUG start: modulators of yeast start codon fidelity, primary screen, whole organism, S. cerevisiae, single point, plate reader; S. cerevisiae UUG-firefly luciferase reporter, luminescence/redox ratio; activity score, % at 18.7 µM; 350,000 compounds, 0.13% hits; AID 602363, 2012;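 active means replicate mean at a twofold rise or more, about +100% in these data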;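 further: firefly luciferase made from a UUG start codon reports start codon fidelity; reporter light over untreated wells divided by growth signal over untreated wells; some hits fall short of that in this replicate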
MT1-MMP act inh RFP: further read-out of MT1-MMP act inh, marked with its call; RFP signal change, %; measured here: RFP expression control read;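 0 = vehicle wells; hits needed this value within 50% of zero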
An asterisk follows results filed as active; i = inactive; ? = inconclusive; . = not tested or not shown. Outcome played no part in choosing rows, and some 2.9% of all compounds hit somewhere here.

no.	Structure	Rce1 inhib	CSC inhib	MT1-MMP act inh	MT1-MMP act inh RFP	PABP FP inh	eIF4H inh	Env fusion inh	Yeast UUG start
1	O=C(O)c1nccnc1C(=O)Nc1ccc(S(=O)(=O)N2CCOCC2)cc1	i	-10	0	-1	-11	3	-10	.
2	COC(=O)c1sccc1NC(=O)/C=C/c1ccc(Cl)cc1	i	22	-1	-2	2	-9	-59	.
3	Cc1ccc(NC(=O)c2ncn(CCCNCCCc3ccccc3)n2)cc1C	.	.	2	3	.	.	7	-8
4	Cc1cc(C(=O)CSc2nnc(N)s2)c(C)n1CCc1ccc(Cl)cc1	i	10	7	-6	28	12	33	-18
5	CCN1CCN(c2cc(N3CCc4ccccc4C3)c(F)cc2[N+](=O)[O-])CC1	i	18	-2	-7	24	11	-56	.
6	COc1ccc(NC(=O)CN2CCC(C)CC2)cc1	i	0	2	-4	-1	-10	-63	-14
7	O=C1c2ccccc2C(=O)N1CCCCN(C(=O)c1cccc([N+](=O)[O-])c1)c1ccc(Cl)cc1	i	-3	-7	-13	-6	-4	-116	-14
8	CC1(C)NC(=O)N(CC(O)COc2ccccc2C(=O)Nc2ccccc2)C1=O (stereo not given)	i	-6	1	3	-5	-1	-46	-9
9	COc1ccc(C(=O)NCCc2nnc(SCc3nc4ccccc4c(=O)[nH]3)n2C)cc1	i	-16	6	8	-4	-8	.	-9
10	Cc1ccc(CCC(=O)Nc2nccs2)o1	i	-1	2	5	-4	2	.	-11
11	CCOC(=O)CSc1nc2cc(C(=O)N3CCC(C(N)=O)CC3)ccc2c(=O)n1-c1ccccc1	i	-1	1	-2	2	0	.	.
12	COc1ccc(S(=O)(=O)n2nc(OC(=O)c3ccc(C)cc3)cc2N)cc1	i	-8	3	-1	3	-2	7	-19
13	Cc1cc(NC(=O)COC(=O)c2ccc(NS(=O)(=O)c3ccc(C)c(C)c3)cc2)no1	i	4	0	-8	0	11	.	.
14	Cc1c(C(=O)NCCN(C)C)oc2ccc(S(=O)(=O)N3CCCC3)cc12	i	16	-2	2	0	-7	6	-7
15	N#Cc1ccsc1NC(=O)CN1CCCCCC1	i	-3	16	6	13	2	.	-12
16	Cc1nc2ccc(Br)cn2c1NC(C)(C)C	i	-4	3	4	1	-8	9	-9
17	CCOc1ccc(NC(=O)c2cccc3ccccc23)cc1	.	38	-1	-5	7	-1	-24	-2
18	Cc1cc(S(=O)(=O)Nc2ccc(C(=O)NCCCn3ccnc3)cc2)ccc1F	i	-7	4	-3	.	.	-4	-16
19	Cc1ccc(CNC(=O)COC(=O)CCC(=O)c2cccs2)cc1	i	-9	1	5	20	8	-9	.
20	CC1(C)Cc2c(c(N3CCOCC3)nc3sc(C(=O)Nc4ccc(Cl)cc4)c(N)c23)CO1	i	.	0	-5	12	-9	1	-6

Later entries.
no.	Structure	Rce1 inhib	CSC inhib	MT1-MMP act inh	MT1-MMP act inh RFP	PABP FP inh	eIF4H inh	Env fusion inh	Yeast UUG start
21	Cc1nn(-c2ccccc2)c(N2CCCC2)c1/C=C1\N=C(c2ccc(F)cc2)OC1=O	i	-16	-1	3	-10	35	-3	-10
22	O=C(Nc1nccs1)c1c(O)c2c([nH]c1=O)CCCC2	i	-15	0	-2	19	11	-143	.
23	COc1ccc([C@@H]2C=C(C(=O)O)O[C@H](OCCCCO)C2)cc1	i	-3	2	3	1	6	-3	-25
24	O=C1c2ccccc2N(Cc2ccc(Cl)cc2)C2=NCCN12	i	-7	-1	-4	3	3	10	-16
25	CCN(CC)C(=O)c1cccc2c1C(=O)c1ccccc1-2	.	-14	0	-1	-3	-8	-8	7
26	O=C(Nc1nc(-c2ccc(S(=O)(=O)N3CCCC3)cc2)cs1)c1ccco1	i	.	-4	-15	2	2	16	17
27	O=c1[nH]cc(COCc2ccccc2)c(=O)[nH]1	i	-2	0	3	0	-8	-5	.
28	CC(C)Oc1ccc(/C=C(/NC(=O)c2ccccc2)C(=O)NCCC(=O)O)cc1	i	-4	5	4	-3	-5	8	.
29	N#CCSC1=Nc2ccccc2C2=NC(CCC(=O)N3CCN(c4ccccc4)CC3)C(=O)N12 (stereo not given)	i	-1	-4	7	14	1	.	-18
30	CC(C)(C)S(=O)(=O)c1nc2ccccc2s1	i	.	4	5	8	13	-87	-13
31	Cc1ccc(-c2cnc(SCC(=O)N3CCCc4ccccc43)n2C)cc1	.	.	-4	-5	-8	-10	.	-35
32	O=C(COC(=O)c1cccc(S(=O)(=O)N2CCc3ccccc32)c1)Nc1ncc(C(F)(F)F)cc1Cl	i	6	1	6	2	2	-58	.
33	COc1ccc(CNc2c(CO)cnc3c2cnn3C)cc1	i	-1	-6	-5	-7	4	13	.
34	CCOC(=O)CN1C(=O)N[C@@H](c2ccco2)C(C(=O)OC)=C1C	i	-10	-2	-1	.	.	-4	-5
35	CCc1cccc(N(C(=O)c2csnn2)C(C(=O)NC(C)(C)C)c2ccncc2)c1 (stereo not given)	i	1	1	0	-8	1	?	.
36	CCOC(=O)C1C(=O)CC(C)(O)C(C(=O)OCC)C1c1cc(Br)ccc1OC (stereo not given)	i	-18	5	0	17	-17	-19	6
37	Cc1ccc(C(=O)Nc2ccc(S(=O)(=O)N3CCOCC3)cc2)cc1	i	-2	-1	-2	5	0	5	-2
38	COCC(=O)N(c1ccc(C(C)C)cc1)C1C=CS(=O)(=O)C1 (stereo not given)	i	.	2	4	4	-4	.	-19
39	COC(=O)CN1C(=O)[C@H]2[C@@H](/C=C/c3ccccc3)N3C(=O)CN(Cc4ccc(-c5ccccc5)cc4)C(=O)[C@@]3(C)[C@H]2C1=O	.	-10	.	.	.	.	-11	-5
40	O=C(CCC(=O)n1ncc2ccccc21)NCc1ccc(F)cc1	i	-7	-4	-1	-9	0	-8	-19

Additional compounds follow:
no.	Structure	Rce1 inhib	CSC inhib	MT1-MMP act inh	MT1-MMP act inh RFP	PABP FP inh	eIF4H inh	Env fusion inh	Yeast UUG start
41	O=C(CCSCc1ccccc1F)NCc1cccnc1	i	-25	1	8	0	-1	-9	.
42	CCCCNC(=O)c1ccc(N2CCOCC2)c(NS(=O)(=O)c2ccc(OC)cc2)c1	i	0	-3	-4	5	5	-30	3
43	COc1ccc(N(CC(=O)N2CCN(c3cccc(C)c3)C(C)C2)S(=O)(=O)c2c(C)n[nH]c2C)cc1 (stereo not given)	i	-5	0	-8	6	-6	-54	-2
44	COc1ccccc1N1C(=O)CC1(C#N)c1ccc(OCc2ccccc2)cc1 (stereo not given)	i	43	-4	-3	-4	7	-29	.
45	O=C(COC(=O)c1ccc[nH]c1=O)NCC12CC3CC(CC(C3)C1)C2	.	.	4	2	.	.	-1	-21
46	C[C@H](NC(=O)c1nc[nH]c1C(=O)NC(c1ccccc1)c1ccccc1)C(=O)OCc1ccccc1	i	-4	-42	-30	-14	16	15	-20
47	O=C(O)c1ccc(-c2noc(-c3cccc(Cl)c3)n2)cc1	.	1	2	2	.	.	-25	-12
48	CCCCN1C2CCCC1CC(NC(=O)c1ccccc1Cl)C2 (stereo not given)	i	-8	-2	-2	-4	12	9	-12
49	CCCOc1ccc(CCC(=O)N/N=C/c2ccco2)cc1	i	1	3	-2	1	-2	-9	-9
50	CC(=O)Nc1ccc(Nc2nc3ccccc3nc2NS(=O)(=O)c2ccccc2)cc1	i	-3	-8	1	16	41	-22	-1
51	COc1ccccc1-n1c(SCC(=O)Nc2ccc(F)cc2)nc2c(c1=O)SCC2	i	-10	0	3	-26	-5	-44	-4
52	S=C1CCC(c2ccc(Cl)cc2)=NN1c1ccccc1	i	-2	-4	1	6	-3	3	-18
53	CCOC(=O)C1(CC2CCCCO2)CCN(Cc2nc3ccccc3nc2C)CC1 (stereo not given)	i	-1	-4	3	-2	-3	15	-7
54	COC(=O)Nc1ccc(S(=O)(=O)NCc2ccccn2)cc1	i	6	3	-4	-9	-8	-8	-16
55	CC1CC(C)CN(C(=O)CN(C)S(=O)(=O)c2ccc3c(c2)c(=O)n(C)c(=O)n3C)C1 (stereo not given)	i	8	1	-3	-8	-17	6	.
56	Cc1cc(C)nc(N/N=C/c2ccccc2OCc2ccc(Cl)cc2)n1	i	3	-3	-5	7	3	-64	-25
57	COC(=O)Cn1cnc2c(nnn2-c2ccc(F)cc2)c1=O	i	-6	1	3	-4	-14	-37	-8
58	CN(C)CCCCOc1ccc(Br)cc1Cl	i	18	-1	3	7	11	-1	.
59	Cc1oc(C(C)(C)C)c(CN2CCOCC2)c1C(=O)O	i	-10	0	3	1	0	-7	.
60	Cc1ccc(-c2nc3ccccc3c(=O)n2NC(=O)c2cccs2)cc1	i	0	-3	2	2	3	-27	.

(further entries)
no.	Structure	Rce1 inhib	CSC inhib	MT1-MMP act inh	MT1-MMP act inh RFP	PABP FP inh	eIF4H inh	Env fusion inh	Yeast UUG start
61	CSCCC(NC(=O)c1ccc([N+](=O)[O-])cc1Cl)C(=O)OCC(=O)NC(=O)CN1CCCC1=O (stereo not given)	i	-9	-2	2	.	.	-18	-2
62	CCc1ccc(C(=O)C(C)OC(=O)Cn2cnc3c2c(=O)n(C)c(=O)n3C)cc1 (stereo not given)	i	-3	1	1	.	.	3	.
63	CC1CCN(S(=O)(=O)c2ccc(NC(=O)N3c4ccccc4Sc4ccccc43)cc2)CC1	i	5	1	-7	7	-10	10	-1
64	CCOC1=C/C(=C/c2c(N)n3nc(S(=O)(=O)CC)sc3nc2=O)C=CC1=O	i	2	-96	10	-1	3	20	.
65	O=C(CCS(=O)(=O)c1ccc2c(c1)NC(=O)CO2)NCCc1ccc(Cl)cc1	i	22	1	6	4	-10	-5	-21
66	Cc1nnc(SCc2cnc(-c3ccccc3)o2)[nH]c1=O	i	.	1	3	9	3	10	6
67	C=CCNC(=O)c1ccncc1	i	12	1	4	4	-8	.	-21
68	Cc1ccc(C)c(OCC(=O)NCC(C)(C)N2CCOCC2)c1	.	18	6	2	.	.	2	-2
69	Cc1ccccc1C(=O)Nc1ccccc1-n1cccc1	i	-21	2	5	3	6	.	-2
70	Cc1ccc(-c2noc(CCC(=O)Nc3ccccc3N3CCN(C)CC3)n2)cc1	i	6	1	3	4	-13	.	-17
71	COc1ccc(OC)c(/C=N\NC(=O)c2ccc(=O)n(C)c2)c1	i	3	-1	-1	4	1	7	1
72	COc1c(Cl)cccc1-c1cn2ccc(C)cc2n1	i	12	2	-2	-1	-7	-128	.
73	COc1cc(C2C3=C(Nc4nc(N)[nH]c(=O)c42)c2ccccc2C3=O)ccc1O (stereo not given)	i	-6	6	6	73*	93*	-3	-11
74	O=C(CSc1nnc(Cc2ccccc2)o1)c1ccc(F)cc1	i	-5	5	4	-4	8	-13	-7
75	COc1ccc(C2C(C#N)=C(N)Oc3cc(C)[nH]c(=O)c32)cc1OC (stereo not given)	i	-5	2	0	-2	-13	-87	.
76	CCc1nnc(NC(=O)c2cccc(S(=O)(=O)N(C)c3ccccc3)c2)s1	i	-13	-3	-3	25	-9	3	.
77	Cc1ccnc(NC(=O)c2cccc3ccccc23)c1	i	4	.	.	0	1	-30	-2
78	CC(NC(=O)c1ccccc1)C(=O)OCC(=O)c1c(N)n(C)c(=O)n(C)c1=O (stereo not given)	.	.	-2	3	.	.	-2	-4
